# gsp ag: qHTS for Agonist of gsp, the Etiologic Mutation Responsible for Fibrous Dysplasia/McCune-Albright Syndrome: qHTS; gsp mutant cells, cAMP HTRF, 30 min; control for the full effect not named in the record; Potency, µM (top dose mostly 76.9 µM), without a hit: top-dose activation (cAMP increase), actives largely listed as activators; hit rate 0.13% among 340,000; AID 624287, 2012; active = well fitted activation curve with a large enough effect; inconclusive = small, poorly fitted or top-dose-only effect, or another doubt; inactive = no such curve, though single readings can be large or run the other way; cell line not stated here;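 further: phosphodiesterase inhibitor Ro 20-1724 added with compounds to block cAMP breakdown; potency means the concentration at half of the fitted maximal effect; nearly all actives have a fitted effect of over 60% in size; about a fifth of the inactives were tested at one dose only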
#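 Cells stably selected in G418 were plated at 2000/well, grown 16-24 hr, then given compounds in DMSO with the PDE inhibitor […] (300 uM solution added) for 30 min at 37C; cAMP was read by HTRF.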
# ClpP mod: qHTS Assay for Activators of ClpP; ATP-dependent Clp protease proteolytic subunit (Bacillus subtilis (strain 168)), P80244; purified B. subtilis ClpP, FRET peptide cleavage, 20 min; Potency, µM (top dose mostly 57.5 µM), inactives show at the top dose activity change, negative = active; hit rate 1.9% among 340,000; active = well fitted falling curve with a large enough effect; inconclusive = small, poorly fitted or top-dose-only effect; inactive = no such curve, though single readings can be large or run the other way; further: potency means the concentration at half of the fitted maximal effect; the source files actives as falling curves though it sought activators and does not explain the sign; nearly all actives have a fitted effect of over 65% in size; many hits overshoot -100%
# Target sequence (P80244 whole entry, looked up): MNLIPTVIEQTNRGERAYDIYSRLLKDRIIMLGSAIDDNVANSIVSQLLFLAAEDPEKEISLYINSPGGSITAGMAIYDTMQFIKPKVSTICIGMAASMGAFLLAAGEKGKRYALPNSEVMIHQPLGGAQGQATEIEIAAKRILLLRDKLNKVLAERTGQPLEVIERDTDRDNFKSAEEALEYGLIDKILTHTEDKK
#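 Purified B. subtilis ClpP, 10 microg/mL final in Tris/HCl pH8 with KCl, BSA, glycerol and Tween-20, cleaved an Abz/nitrotyrosine-quenched decapeptide. Fluorescence (ex 320, em 430) was read at 0 and 20 min at room temperature. Delta was normalized to 5.8 microM ADEP and DMSO/no-enzyme controls.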
# D2 PAM: Beta-Arrestin HTS for Positive Allosteric Modulators of the Human D2 Dopamine Receptor: Potentiators; hit rate 0.23% among 360,000; DiscoveRx D2 beta-arrestin cells, luminescence, 90 min; 100% = 57 uM dopamine signal; AID 624464, 2012; D(2) dopamine receptor (Homo sapiens), P14416; potentiation, % (concentration not given with the values); active = potentiation of 50% or more; inconclusive = 30% to 50%; inactive = 30% or less;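 further: compound concentration not given in the record; tested on top of an EC20 dose of dopamine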
# Target sequence (P14416 whole entry, looked up): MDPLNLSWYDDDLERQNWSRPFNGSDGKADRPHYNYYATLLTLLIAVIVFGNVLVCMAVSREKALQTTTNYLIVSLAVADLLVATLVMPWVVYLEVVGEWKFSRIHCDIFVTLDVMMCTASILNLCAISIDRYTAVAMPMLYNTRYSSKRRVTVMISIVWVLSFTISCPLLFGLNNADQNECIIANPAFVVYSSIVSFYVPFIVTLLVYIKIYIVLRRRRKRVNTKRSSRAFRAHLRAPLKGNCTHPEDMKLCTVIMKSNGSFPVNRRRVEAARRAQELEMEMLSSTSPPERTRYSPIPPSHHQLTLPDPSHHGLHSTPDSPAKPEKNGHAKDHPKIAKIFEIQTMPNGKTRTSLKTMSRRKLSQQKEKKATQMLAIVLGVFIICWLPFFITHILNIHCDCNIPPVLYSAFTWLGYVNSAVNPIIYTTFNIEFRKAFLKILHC
#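 D2 cells co-treated with compound plus 50 nM dopamine (EC20) for 90 min at 37 deg C to detect potentiation. Beta-arrestin recruitment was read as enzyme-fragment luminescence after 1 h at ambient temperature. Full response was set by 57 uM dopamine.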
# TRPV1 PAM: HTS Assay for Compounds that Act as Potentiators of the Vanilloid Receptor 1; Transient receptor potential cation channel subfamily V member 1 (Homo sapiens), Q8NER1; TRPV1-expressing cells, Fluo-8 calcium influx, capsaicin EC20 potentiation; host cell line not named in the record; control for the full effect not named in the record; potentiation, % at 8.33 µM; hit rate 0.02% among 320,000; active means potentiation above 80%; inconclusive means 30% to 80%; inactive means below 30%; further: 0% is about no effect
#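 Fluo-8 calcium influx in TRPV1-expressing cells, kinetic read (ex 480/em 520 nm). Compound added and read 3 min for agonist activity, followed by capsaicin at EC20 final and 2 min further read for enhancement.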
# gsp antagonist: qHTS for Antagonists of gsp, the Etiologic Mutation Responsible for Fibrous Dysplasia/McCune-Albright Syndrome: qHTS. gsp-mutant cells, cAMP HTRF, 30 min; control for the full effect not named in the record. Potency, µM (doses to about 76.9 µM), inactives show at the highest dose activity change, negative = inhibition, usual class: inhibitors. hit rate 0.4% among 340,000; active = falling curve of any shape with a large fitted effect; inconclusive = falling curve, mostly with a smaller effect; inactive = flat or rising curve; cell line not stated here;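 further: intracellular cAMP measured with PDE inhibitor Ro 20-1724 present during compound exposure; potency means the concentration at half of the fitted maximal effect; on the % scale 0 is the no-effect control and ±100 the full control effect; nearly all actives have a fitted effect of over 65% in size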
#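 Cells, 2000/well, grown 16–24 h in DMEM 10% FBS with 0.5 mg/ml G418, then compounds plus […] (300 uM addition stock), 30 min at 37C. cAMP read by HTRF (cAMP-d2 and anti-cAMP antibody-K in lysis buffer) after 30 min RT.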
# Menin-MLL FL inh: qHTS Assay for Inhibitors Targeting the Menin-MLL Interaction in MLL Related Leukemias: Competition With Fluorescein Labeled MLL-derived Peptide; 290,000 tested, under 10 active; Fluorescence polarization, fluorescein-MLL peptide displacement from menin; FP activity change, % at 61.4 µM; AID 1766, 2009; inconclusive = falling polarisation curve, or a change in total fluorescence; inactive = total fluorescence flat and polarisation flat or rising; no compound was filed as active; the % refers to the polarisation; negative = inhibition;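 further: % of control where 0% means no effect; inhibitors lower the polarisation; unlabelled MLL peptide was the positive control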
# Sfp inh: qHTS Assay for Inhibitors of Bacillus subtilis Sfp phosphopantetheinyl transferase (PPTase); 4'-phosphopantetheinyl transferase ffp (Bacillus subtilis), Q9F4F7; Biochemical Sfp PPTase activity, qHTS; Potency, µM, for inactives: max response, negative = inhibition, actives largely listed as inhibitors; hit rate 3.5% among 310,000; active means well fitted inhibition curve with a large enough effect; inconclusive means small, poorly fitted or top-dose-only effect, or another doubt; inactive means no such curve, though single readings can be large or run the other way;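 further: the enzyme is Sfp with the accession as filed and its product quenches rhodamine fluorescence; potency means the concentration at half of the fitted maximal effect; 0% = enzyme reaction without inhibitor and -100% = no enzyme wells; top concentration of the series not given in the record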
#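 Sfp 15 nM + cpd, 15 min RT; start w/ rhodamine-CoA 5 uM, BHQ-2-YbbR 12.5 uM (final); 50 mM Hepes pH 7.6, 10 mM MgCl2, 0.01% NP-40, 0.01% BSA; read 525/598 nm at 0 and 30 min.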
# The depositor's hits bear a star; u = inconclusive; x = not tested or not shown; & = joins results of further samples; [ ] = another dose, or the depositor's remark.
SMILES,gsp ag,ClpP mod,D2 PAM,TRPV1 PAM,gsp antagonist,Menin-MLL FL inh,Sfp inh
COCCn1c(SCC(=O)Nc2ccc(OC)c(S(N)(=O)=O)c2)nc2ccccc21,20%,-2.0%,2,16,-2%,0.9,16%
O=C(NNS(=O)(=O)c1ccc(F)cc1)c1ccc(S(=O)(=O)N2CCCCC2)cc1,-7%[15.4 µM],0.2%,-5,14,1%,3.5,0%
Cc1cc(C)c(C#N)c(SCC(=O)Nc2cccc(S(=O)(=O)N3CCCC3)c2)n1,28µM*,13%,-25,-16,18%,x,x
COc1ccc(C2CC(c3ccccc3)Nc3nc(NS(C)(=O)=O)nn32)cc1 (stereo unspecified),-118%[inhibitor],2.1%,-6,u,-11%,-2.3,9%
COc1ccc([N+](=O)[O-])c(OC)c1C(=O)Nc1ccc(F)cc1F,7%[15.4 µM],x,-10,-3,-1%,-2.9,12%
Clc1nc(Cl)nc(-c2cn(-c3ccccc3)c3ccccc23)n1,23%,3.7%,-2,12,-23%,12,56µM*
CCOC(=O)c1sc2nc(CC(=O)OC)nc(NCCN3CCOCC3)c2c1C,-16%,u,-11,3,-2%,3.0,15%
CCOc1ccccc1NC(=O)C(=O)NCC1CCCN1CC (stereo unspecified),7%,1.0%,-21,-13,6%,2.9,17%
COc1ccc(NC(=O)CNC(=O)c2sc3ccccc3c2Cl)c(OC)c1,6%,1.5%,-2,3,-10%,x,x
O=C(OCC(=O)N1CCc2ccccc21)C1=COCCO1,9%,-3.5%,-11,9,5%,-2.0,-9%
CCn1c(SCC(=O)NCCc2ccc(Cl)cc2)nnc1-c1cccs1,u,-1.2%,-34,-13,-3%,1.5,-1%
O=C(CCCCCn1c(=O)[nH]c2ccccc2c1=O)NCCc1c[nH]c2ccccc12,-1%,-4.3%,-19,10,u,3.1,-15%
S=C(NCCSCc1ccc(Cl)cc1)Nc1ccccc1,u,-0.4%,0,-9,4%,2.4,7%
CC1(C)O[C@@H]1COc1c2ccoc2cc2oc(=O)ccc12,-4%,-5.4%,0,6,0%,2.4,6%
Cc1nc(N2CCN(Cc3ccc4c(c3)OCO4)CC2)[nH]c(=O)c1C,13%,-1.5%,-3,5,-13%,3.3,10%
O=C(COC(=O)c1ccc([N+](=O)[O-])o1)Nc1cccc(S(=O)(=O)N2CCOCC2)c1,11%[15.4 µM],1.2%,21,3,17%,-4.8,1%
Cn1c(CN2CCN(C(=O)c3ccc(F)cc3)CC2)nc2cc([N+](=O)[O-])ccc21,8%[15.4 µM],x,3,-14,-6%,2.1,18%
CC1CCN(c2nc(N(C)c3ccccc3)nc(N)c2[N+](=O)[O-])CC1,-8%[15.4 µM],x,-2,-11,13%,0.0,1%
Cc1ccc(CCNC(=O)C2=CCN(S(=O)(=O)c3ccccc3)CC2)cc1,33%,2.3%,-11,0,-10%,0.4,15%
Fc1ccc(CN2CCCN(Cc3nc(-c4ccc5c(c4)OCO5)no3)CC2)cc1,-29%,-0.5%,-16,0,-7%,-3.2,6%
O=C(CSc1nc2ccc([N+](=O)[O-])cc2[nH]1)NCCc1ccccc1,21%,0.1%,-11,-2,-9%,0.1,30%
COc1ccc(NC(=O)c2ccc(S(=O)(=O)N3CCCCC3)cc2)cc1OC,-47%[inhibitor],3.4%,-5,x,-12%,x,x
N#Cc1ccccc1N=C1CCCN1Cc1ccccc1,-18%,0.0%,20,0,-13%,2.3,10%
C=CC[C@H](CC(=O)OC(C)(C)C)C(=O)OC[C@@H]1CCCN1C(=O)[C@@H](CC=C)CC(=O)NCCO,-10%,1.4%,-3,x,8%,x,x
O=C(CN1CCOCC1)Nc1nc(-c2ccccc2)cs1,29%,x,8,-13,1%,-4.1,10%
CN(CCOCCOc1ccc(F)cc1)Cc1ccccc1,-1%,-3.3%,-29,-1,8%,0.6,u
COc1cccc(CN2CCN(CC#Cc3ccccc3)CC2CCO)c1 (stereo unspecified),-25%,-3.7%,-6,9,0%,4.0,2%
CCN(Cc1nc2cc(Cl)ccc2c(=O)[nH]1)C(=O)c1cc(C2CC2)nn1-c1ccccc1,7%[15.4 µM],-2.1%,-12,3,-31%,x,x
CCN1C(=O)[C@H]2[C@@H](c3ccc(C)cc3)N3C(=O)N(c4ccc(OC)cc4)C(=O)[C@@]3(Cc3ccc(Cl)cc3)[C@H]2C1=O,x,-2.9%,-10,11,2%,-2.6,11%
CCOC(=O)CC(N)c1ccc2c(c1)OCO2 (stereo unspecified),19%,0.9%,-3,29,4%,0.9,0%
O=C1CC(NS(=O)(=O)c2ccccc2)CN1c1ccc2c(c1)OCCO2 (stereo unspecified),22%,-7.8%,-1,13,-5%,x,x
COc1ccc(Nc2nc(NCCN3CCOCC3)nc(Nc3ccc(OC)cc3)n2)cc1,1%[15.4 µM],-0.7%&-0.9%,4,3,0%,5.2,-11%
CCCn1c(SC/C(O)=C(\C#N)c2nc3ccccc3[nH]2)n[nH]c1=O,-5%[15.4 µM],x,-8,10,-3%,u,-4%
O=C(NCc1ccccc1F)C1CCCN1C(=O)Nc1ccccc1 (stereo unspecified),0%,1.2%,-13,-3,4%,-1.1,11%
C=CCn1c(-c2cccnc2Cl)nc2cc(Cl)c(Cl)cc21,-12%,u,2,-13,-17%,-1.9,8%
Cc1nnc(NC(=O)c2c(F)c(F)c(F)c(F)c2F)s1,4%,2.1%,-3,-1,-21%,0.2,4%
Nc1ccc(C(=O)N2CCN(S(=O)(=O)c3ccc4c(c3)OCCCO4)CC2)cc1[N+](=O)[O-],0%,-2.9%,-4,-1,u,x,x
NC(N)=N/N=C/c1cccc([N+](=O)[O-])c1O,-6%[15.4 µM],x,-9,-12,-7%,0.1,11%
O=C(CN1CCN(c2ccccn2)CC1)N1CC(O)CO1 (stereo unspecified),22%,x,0,-4,2%,-3.9,-2%
COc1ccc([N+](=O)[O-])cc1NC(=O)Nc1ccccc1,20%[15.4 µM],0.8%,-33,-2,u,5.8,-9%

# Ordered by count of non-hydrogen atoms (descending): part of the list above.
SMILES,gsp ag,ClpP mod,D2 PAM,TRPV1 PAM,gsp antagonist,Menin-MLL FL inh,Sfp inh
CCN(Cc1nc2cc(Cl)ccc2c(=O)[nH]1)C(=O)c1cc(C2CC2)nn1-c1ccccc1,7%[15.4 µM],-2.1%,-12,3,-31%,x,x
O=C(NCc1ccccc1F)C1CCCN1C(=O)Nc1ccccc1 (stereo unspecified),0%,1.2%,-13,-3,4%,-1.1,11%
O=C(CN1CCOCC1)Nc1nc(-c2ccccc2)cs1,29%,x,8,-13,1%,-4.1,10%

# (more compounds)
SMILES,gsp ag,ClpP mod,D2 PAM,TRPV1 PAM,gsp antagonist,Menin-MLL FL inh,Sfp inh
NC(=O)c1ccccc1N=Cc1ccccn1,-4%,25µM*,-21,-3,7%,-8.8,18%
Cc1ccccc1NC(=O)c1cccc(N2C(=O)C3CCC(C)CC3C2=O)c1 (stereo unspecified),-15%,x,1,-14,0%,-3.7,0%
Cc1ccc(S(=O)(=O)NC(C)(C)C)cc1C(=O)OCC(=O)N1CCCC1=O,4%,0.6%,-8,5,2%,x,x
Cc1ccc(C)c(N(C(=O)CNC(=O)c2ccco2)C(C(=O)NC2CCCC2)c2ccncc2)c1 (stereo unspecified),-3%[15.4 µM],x,1,-8,x,5.8,3%
CC(C)Oc1cccc(C(=O)C2CCCN(C(=O)CCn3cnnn3)C2)c1 (stereo unspecified),-12%,-4.1%,-7,1,0%,-3.6,8%
Cc1ccc(NC(=S)NCCN2CCOCC2)cc1C,-5%,0.1%,25,-14,4%,2.1,13%
Cc1csc(=O)n1CCC(=O)O,2%,-3.1%,-1,0,6%,2.8,-8%
O=C(Cn1c(NCCO)nc2ccccc21)Nc1ccc2c(c1)OCCCO2,-3%[15.4 µM],x,-16,10,-5%,x,x
COc1ccc(C2=NOC(Cn3nc(-c4ccccc4C)cc3C(=O)O)C2)cc1 (stereo unspecified),x,-3.8%,-1,10,-8%,x,x
CCOc1ccccc1Nc1nnc(SCC(=O)NC2CCS(=O)(=O)C2)s1 (stereo unspecified),0%,1.3%,-1,x,8%,x,x
Nc1c(-c2ccc(Cl)cc2)cnc2c(-c3ccccc3)cnn12,5%[15.4 µM],-1.9%,-1,-1,-1%,0.2,9%
COc1ccc(Cn2nnnc2C(c2cc3cc(C)ccc3[nH]c2=O)N2CCOCC2)cc1 (stereo unspecified),-5%,-27%,-8,15,-4%,6.9,u
CCN(CC)C(=O)[C@H]1C[C@H](CC(=O)NCCC2=CCCCC2)C(=O)N2CCc3c([nH]c4cc(CCC(=O)N(C)C)ccc34)[C@]12C,x,-1.5%,-2,x,-22%,x,x
Cn1nnnc1SCCNC(=O)C1CCC(=O)N(CCc2ccccc2)C1 (stereo unspecified),-69%[inhibitor],0.8%,-6,3,8%,-4.1,6%

# Reformatted bar-delimited: four of the compounds above.
Molecule | gsp ag | ClpP mod | D2 PAM | TRPV1 PAM | gsp antagonist | Menin-MLL FL inh | Sfp inh
NC(=O)c1ccccc1N=Cc1ccccn1 | -4% | 25µM* | -21 | -3 | 7% | -8.8 | 18%
Cc1ccccc1NC(=O)c1cccc(N2C(=O)C3CCC(C)CC3C2=O)c1 (stereo unspecified) | -15% | x | 1 | -14 | 0% | -3.7 | 0%
Cc1ccc(S(=O)(=O)NC(C)(C)C)cc1C(=O)OCC(=O)N1CCCC1=O | 4% | 0.6% | -8 | 5 | 2% | x | x
Cc1ccc(C)c(N(C(=O)CNC(=O)c2ccco2)C(C(=O)NC2CCCC2)c2ccncc2)c1 (stereo unspecified) | -3%[15.4 µM] | x | 1 | -8 | x | 5.8 | 3%
